Compound activity from PubChem BioAssay.
CSC inhib – blocks cancer stem cells | actives 1.1% (n = 300,000) | inhibition, % at 7.5 µM | cancer stem cell-like cells viability, luminescence;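 active means mean at 75% or more and at least half the replicates too; inconclusive means mean and replicates disagree; tested in HMLE shEcad cells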;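 further: 0% = median of negative and 100% = median of positive control wells; the first replicate is given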
Rce1 inhib – inhibitors of yeast Ras-converting enzyme; Q03530; calls only; yeast membranes, quenched prenylated peptide cleavage fluorescence; AID 2563; actives 0.27% (n = 290,000);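 active means fall in fluorescence gain of 50% or more versus controls, with final raw signal at or below 3038400; inconclusive means same 50% fall but final raw signal above 3038400; inactive means fall in fluorescence gain under 50%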;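 further: plate controls were neutral control wells for no effect and wells lacking membranes for full effect; tested at 10 µM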
Target sequence (Q03530 whole entry, looked up): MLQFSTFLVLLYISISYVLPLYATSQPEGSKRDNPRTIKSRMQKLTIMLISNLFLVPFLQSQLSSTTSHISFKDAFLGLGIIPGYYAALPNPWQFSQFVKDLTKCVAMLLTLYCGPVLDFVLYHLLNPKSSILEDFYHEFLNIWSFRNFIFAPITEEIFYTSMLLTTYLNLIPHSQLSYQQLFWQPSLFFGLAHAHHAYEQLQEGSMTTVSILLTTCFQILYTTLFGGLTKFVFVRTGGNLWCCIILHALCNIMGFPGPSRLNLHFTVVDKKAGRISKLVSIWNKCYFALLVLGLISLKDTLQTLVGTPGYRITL
PABP FP inh – blocks human PABP binding to poly(A) RNA; P11940; fluorescence polarization; inhibition, % at 35 µM; actives 1% (n = 290,000);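 active means 50% or more with normal probe brightness, or confirmed in later tests; inconclusive means above 50% with abnormal brightness, or retests that disagree; inactive means below 50% or failed in later tests; about a fifth of its hits are not listed in these tables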;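 further: calls also rest on retests at 20 µM and on dose response follow-up; controls were probe without protein and protein plus probe with vehicle; some compounds called inactive have numbers as strong as hits; many hits fall short of the cut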
Target sequence (P11940 whole entry, looked up): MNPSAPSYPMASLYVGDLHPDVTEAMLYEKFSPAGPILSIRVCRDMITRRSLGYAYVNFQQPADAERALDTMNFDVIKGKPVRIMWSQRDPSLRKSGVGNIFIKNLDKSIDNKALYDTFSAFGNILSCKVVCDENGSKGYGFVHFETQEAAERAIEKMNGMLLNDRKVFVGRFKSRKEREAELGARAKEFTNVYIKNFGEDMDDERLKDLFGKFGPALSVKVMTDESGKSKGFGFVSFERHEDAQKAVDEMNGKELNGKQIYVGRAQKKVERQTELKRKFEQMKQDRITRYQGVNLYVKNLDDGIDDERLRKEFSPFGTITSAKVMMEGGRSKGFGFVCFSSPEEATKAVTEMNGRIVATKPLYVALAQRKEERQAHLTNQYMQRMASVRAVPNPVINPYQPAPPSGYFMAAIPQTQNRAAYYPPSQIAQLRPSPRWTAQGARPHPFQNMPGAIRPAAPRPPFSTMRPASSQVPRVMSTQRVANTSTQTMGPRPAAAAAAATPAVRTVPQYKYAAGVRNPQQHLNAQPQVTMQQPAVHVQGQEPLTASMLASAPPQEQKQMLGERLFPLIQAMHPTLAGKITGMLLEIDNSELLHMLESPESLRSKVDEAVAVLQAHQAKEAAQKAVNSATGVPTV
HIV Env fusion – inhibitors of HIV Env-mediated cell fusion. HeLa-JRFL Env/CEM21 cell fusion, luciferase. AID 651610. inhibition, % at 12.3 µM. actives 1.1% (n = 360,000);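 active means mean replicate inhibition score of at least 50 and every replicate individually at or above 50; inconclusive means only one of the two criteria met; inactive means mean below 50 and not all replicates reaching 50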;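 further: 0% = plate neutral controls and 100% = maraviroc near 300 nM; one replicate is shown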
MT1-MMP act inh – blocks activation of human MT1-MMP. AID 651647. HT1080 RFP-PRO-GFP cells, GFP/RFP ratio fluorescence, overnight; percent of plate control window, DMSO zero. actives 0.061% (n = 360,000). GFP/RFP ratio change, % at 20 µM;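 active means GFP/RFP ratio change of at least 30% with cell ATP level not reduced by more than half and red fluorescence within 50% of control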; further: strong numbers were not always called active
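Read-out: GFP/RFP fluorescence ratio; Test system: RFP-PRO-GFP reporter HT1080 cells; Compound dosing: single-point 20 µM compound, 1% DMSO; Times: overnight compound exposure at 37 °C.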
UUG fidelity – modulators of start codon recognition fidelity in yeast; S. cerevisiae UUG-firefly luciferase reporter, luminescence/redox ratio; activity score, % at 18.7 µM; actives 0.13% (n = 350,000);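 active means replicate mean at a twofold rise or more, about +100% in these data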;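 further: firefly luciferase made from a UUG start codon reports start codon fidelity; reporter light over untreated wells divided by growth signal over untreated wells; some hits fall short of that in this replicate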
eIF4H FP inh – inhibitors of RNA binding by human eIF4H | Q15056 | eIF4H fluorescence polarization binding assay | inhibition, % at 35 µM | actives 0.94% (n = 290,000);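 active means 50% or more with normal probe brightness, or confirmed in later tests; inconclusive means above 50% with abnormal brightness, or retests that disagree; inactive means below 50% or failed in later tests; about a fifth of its hits are not listed in these tables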;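 further: calls also rest on retests at 20 µM and on dose response follow-up; 0% = protein and probe with vehicle and 100% = probe without protein; strong numbers were not always called active; many hits fall short of the cut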
eIF4H FP inh retest – further read-out of eIF4H FP inh, marked with its call; inhibition, %; compound at 20 µM; confirmation average;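 mean of two retest wells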
PABP FP inh retest – second read-out of PABP FP inh, no call of its own (marks repeat the call); inhibition, %; compound at 20 µM; confirmation repeats;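 mean of two retest wells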
MT1-MMP act inh RFP – also measured in MT1-MMP act inh; calls as there; RFP signal change, %; measured here: RFP expression control read;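 0 = vehicle wells; hits needed this value within 50% of zero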
* = called active by the depositor; i = inactive; u = inconclusive; x = no result given. An excerpt; the hit share may differ from the screen's.

Start of the data: the first three entries as a preview:
SMILES	CSC inhib	Rce1 inhib	PABP FP inh	HIV Env fusion	MT1-MMP act inh	MT1-MMP act inh RFP	UUG fidelity	eIF4H FP inh	others
COc1ccc(N2C(=O)[C@@H]3Cc4ccccc4CN3C2=O)cc1	2	i	-5	x	0	3	-12	-1
C[C@@H]1CC[C@H](O)/C=C/C(=O)O[C@H](C)CC[C@H](O)/C=C/C(=O)O1	-8	i	19	x	-8	-25	-24	25
CCc1noc(C)c1C(=O)Nc1nc2ccc(F)cc2s1	-9	i	x	-208	-7	-6	-7	x

The listing, previewed entries included:
SMILES	CSC inhib	Rce1 inhib	PABP FP inh	HIV Env fusion	MT1-MMP act inh	MT1-MMP act inh RFP	UUG fidelity	eIF4H FP inh	others
COc1ccc(N2C(=O)[C@@H]3Cc4ccccc4CN3C2=O)cc1	2	i	-5	x	0	3	-12	-1
C[C@@H]1CC[C@H](O)/C=C/C(=O)O[C@H](C)CC[C@H](O)/C=C/C(=O)O1	-8	i	19	x	-8	-25	-24	25
CCc1noc(C)c1C(=O)Nc1nc2ccc(F)cc2s1	-9	i	x	-208	-7	-6	-7	x
CC(C)Oc1cccc(C(=O)NC(=S)Nc2cccnc2)c1	-7	i	41	u	-3	0	x	7
CCC1(C)Cc2ccccc2-c2nc3n(c(=O)c21)CCS3 (stereo not given)	7	i	-6	41	6	-1	x	8
COc1cc2c(cc1NC(=S)Nc1cccc(C(F)(F)F)c1)oc1ccccc12	50	i	10	-2	3	0	-48	-5
COCCN(Cc1cc2ccc(C)cc2[nH]c1=O)S(=O)(=O)c1ccccc1	-7	i	-6	-2	0	-1	-6	8
COc1ccccc1-c1cc(C(F)(F)F)nc(N2CCN(c3ccc(F)cc3)CC2)n1	24	i	50	-18	0	-1	2	0
Cc1cccc(C)c1NC(=O)CNC(=O)C1COc2ccccc2O1 (stereo not given)	-6	x	x	-10	-4	4	-13	x
CCc1ccc(OCC(=O)Nc2cc(S(=O)(=O)CC)ccc2O)cc1	-6	i	-3	x	4	1	-10	1
O=C(NCc1ccco1)C1CCCN1C(=O)Nc1ccc(Br)cc1 (stereo not given)	x	i	0	-26	-6	-2	-10	-12
CCOc1ccc(C(=O)Nn2cnnc2)cc1	-11	i	-5	x	1	4	13	-5
CC(C)(C)c1ccc(/C=N/Nc2nncn2N)cc1	6	i	2	2	-2	-2	-19	-10
Cc1cccc(C(=O)NNS(=O)(=O)c2ccc(F)cc2)c1O	-3	i	1	-16	5	1	2	-7
O=C(NC(N1CCCCCC1)C(Cl)(Cl)Cl)c1ccccc1Cl (stereo not given)	-5	i	-1	-8	-1	2	x	-6
Oc1ccc(-c2nccc(-c3ccc(Cl)cc3Cl)n2)cc1	-16	i	4	-1	1	10	x	6
Cc1ccc(NC(=O)Nn2cnnc2)cc1	-1	i	-7	0	1	6	-8	-4
COc1ccc(C2N=C(N)N=C(N)N2c2ccccc2)cc1OC (stereo not given)	-11	i	1	x	0	4	-1	-5
O=C1c2ccccc2C(=O)N1CCCON1C(=O)c2ccccc2C1=O	-19	i	11	16	4	6	x	4
N#CC1=C(N)OC2=C(C(=O)CCC2)C1c1ccc(OC(=O)N2CCOCC2)cc1 (stereo not given)	-1	i	14	x	-5	-1	-10	2
CCN1CCN(c2ccc(NC(=O)c3ccco3)cc2Cl)CC1	-17	i	-4	-10	2	2	-7	7
O=C(/C=C/c1ccc(Br)o1)OCc1ccccc1	-9	i	13	x	4	4	-4	9
O=C(OCn1nnc2ccccc2c1=O)C1COc2ccccc2O1 (stereo not given)	11	i	6	x	-5	3	-9	-4
CCOC(=O)c1ccc(NC(=S)NC(=O)COc2ccccc2)cc1	-4	i	-10	4	1	5	x	-6
Fc1c(F)c(F)c(N/N=C/c2c[nH]c3ccccc23)c(F)c1F	44	i	11	-9	3	1	x	-2
CCOC(=O)c1cc(-c2ccccc2)nn1Cc1cc(C)no1	-8	i	x	4	5	-5	-7	x
CN1C(=O)C2(OCCCO2)c2ccccc21	-9	i	4	-2	1	2	-20	-1
Cn1c(=O)c2c(nc(N3CCOCC3)n2CCc2ccccc2)n(C)c1=O	5	i	6	9	-1	1	-13	-3
Cn1ncc2c(Nc3cccc(C(=O)O)c3)ncnc21	-11	i	7	x	3	6	-26	-7
O=C(Nc1ccccc1)N1CCN(S(=O)(=O)c2ccccc2)CC1	1	i	-7	-1	-2	-1	x	-3
N#Cc1nc(-c2ccco2)oc1N1CCC(C(N)=O)CC1	-1	i	3	x	1	6	-7	-1
COc1cccc(N(CC(=O)NC(C)c2ccccc2)S(C)(=O)=O)c1 (stereo not given)	-4	i	1	-8	1	1	-2	-4
Cc1cc(SCC(=O)NC(=O)NCc2ccco2)nc2c(C)cccc12	14	i	27*	5	-4	-3	-5	51*	eIF4H FP inh retest=82*;PABP FP inh retest=59*
COc1ccc2c(c1)[C@H]1[C@H](CO2)[C@H](c2ccccc2)[C@]2(C)C(=O)Nc3cc(F)ccc3C(=O)N12	x	x	x	34	-16	-15	-2	x
CC(Sc1nnc(C2CC2)n1C1CC1)C(=O)c1ccc(Br)cc1 (stereo not given)	x	x	x	16	5	-1	13	x
CCCCCCCC(=O)NNC(=O)c1c(O)c2ccccc2n(CCC)c1=O	-8	i	-13	-9	4	5	-16	12
COCNc1nc(OCC#N)nc(N(C)C)n1	-12	i	4	-4	4	2	-14	0
O=S(=O)(c1cccc(-c2csc(N/N=C/c3ccco3)n2)c1)N1CCOCC1	11	i	9	30	6	-4	-8	-21
COc1ccc(OC)c(CN2CCC(N3CCC(C(=O)NC4CC4)CC3)CC2)c1	-6	i	-3	-81	-2	4	-23	-8
Cc1cc(C)cc(NC(=S)NCCSc2ccc(Cl)cc2)c1	x	i	-3	-8	3	0	x	0
CCc1ccccc1NC(=O)Cn1ccn(-c2ccc(OC)cc2)c(=O)c1=O	15	i	-14	-3	-2	0	-26	-2
CC(C(=O)OCn1nnc2ccccc2c1=O)N1C(=O)c2ccccc2C1=O (stereo not given)	-9	x	8	-52	0	5	1	-8
COc1ccc(CNC(=O)CCC(=O)Nc2cccnc2)cc1	-19	i	-1	-40	2	4	-14	29
COc1cccc(/C(N)=N/OC(=O)Cc2ccccc2[N+](=O)[O-])c1	6	i	-6	-23	-3	-6	-24	4
Clc1cccc(NCc2cn3cccnc3n2)c1	-2	i	11	-10	-3	-1	-22	3
Cc1c(Cl)cccc1NC(=S)N1CCN(c2ccccn2)CC1	3	i	-8	17	4	0	x	-2
CN(C(=O)COC(=O)CNC(=O)C12CC3CC(CC(C3)C1)C2)c1ccccc1	-16	i	-2	x	3	3	2	-18
CC(C)(C)c1ccc(C(=O)c2cn[nH]c2-c2ccccc2O)cc1	14	i	-2	17	1	1	0	-7
CCc1noc(C)c1C(=O)N(C)CC(=O)Nc1ccccc1C(F)(F)F	-4	i	x	-71	-6	2	-15	x
CCn1c(CNC(=O)COc2ccc(C(C)C)cc2)nnc1SCC(=O)Nc1ccccc1	-40	i	3	34	-2	-7	-3	-5
COc1ccc(NS(=O)(=O)c2ccc(N)c(C(=O)O)c2)cc1	x	i	16	x	16	2	19	-2
CN(C)S(=O)(=O)c1cccc(NC(=S)NC23CC4CC(CC(C4)C2)C3)c1	5	i	2	12	-1	1	-19	-3
CN(CCCC(=O)N1CCN(c2ncccn2)CC1)S(=O)(=O)c1ccc(F)cc1	2	x	x	x	1	-2	-26	x
Cc1ccc(-n2nnnc2SCC(=O)N(CC(C)C)c2c(N)n(CC(C)C)c(=O)[nH]c2=O)cc1	-33	i	3	-2	-37	-31	x	-1
COc1cccc(NC(=O)CCCOc2cc(=O)n(C)c3ccccc23)c1	-20	i	0	-96	13	11	-3	2
COc1cc(CC(=O)N2CCN(S(=O)(=O)c3ccc(C)cc3)CC2)cc(OC)c1OC	1	x	x	x	-1	0	11	x
CN(CC(=O)N1CC=C(c2ccccc2)CC1)S(=O)(=O)c1cnc[nH]1	9	i	0	x	0	-3	x	-3
O=C(Nc1nc(-c2ccccc2)cs1)C1CCCN(S(=O)(=O)c2cccc([N+](=O)[O-])c2)C1 (stereo not given)	2	i	-6	50	-11	-15	x	3
CN(C)S(=O)(=O)c1ccc(N2CCCC2)c(C(=O)Nc2ccccc2OC(F)F)c1	-13	i	2	9	-2	4	2	-8
CCOc1ccc(N2CC(C(=O)Nc3cccc(C(=O)NC4CC4)c3)CC2=O)cc1 (stereo not given)	x	x	x	-5	2	4	-2	x
Remaining list, next part:
SMILES	CSC inhib	Rce1 inhib	PABP FP inh	HIV Env fusion	MT1-MMP act inh	MT1-MMP act inh RFP	UUG fidelity	eIF4H FP inh	others
Cc1cc(C)c2nc3c(c(C(=O)O)c2c1)CCC3	-14	i	-4	7	8	3	-2	3
CCOc1ccc(NC(=O)CCCN2C(=S)NC(C)(C)CC2C)cc1 (stereo not given)	-7	i	-7	-11	-1	0	-28	-7
COc1ccc(OC)c(NS(=O)(=O)Cc2ccccc2)c1	-5	i	u	x	x	x	x	u
Cc1cccc2cc(CN(Cc3ccco3)C(=O)Nc3cccc(C#N)c3)c(Cl)nc12	26	i	-1	x	1	-7	-12	-1
C=CC#CC[N+]1(CC#Cc2ccccc2)CCOCC1	x	i	22	-36	-4	1	x	9
CCn1c(SCC(=O)N/N=C/C(C)=C\c2ccco2)nnc1-c1ccccc1	14	i	7.0*	-1	-4	0	-10	51*	eIF4H FP inh retest=81*;PABP FP inh retest=56*
O=S(=O)(c1ccc2ccccc2c1)N(CC(O)COCc1ccco1)c1ccccc1 (stereo not given)	2	i	8	24	-4	-11	8	8
N#CCc1ccc(NC(=O)c2ccc(S(=O)(=O)N3CCOCC3)cc2)cc1	-34	i	2	14	1	3	-7	-16
Cc1ccc(CN2CCN(/N=C/c3cccs3)CC2)cc1	2	i	-15	16	-1	1	x	-7
O=S(=O)(/N=C(\c1ccc(F)cc1)N1CCOCC1)c1ccccc1	x	x	x	-29	-3	1	-1	x
COC(=O)c1ccc(NC(=O)Nc2ccc(C)cc2)cc1	7	i	-9	x	3	-1	-22	-2
Cn1nccc1C(=O)N1CCN(c2cccc(Cl)c2)CC1	0	i	4	x	4	2	-13	2
O=C1NCCCc2nc(Oc3ccccc3)sc21	-16	i	2	x	3	1	-18	-13
Cc1nc2c(-c3ccc(Cl)cc3)cnn2c(N)c1-c1ccc(F)cc1	58	i	-11	-404	9	-2	-21	-6
Cc1ccc2[nH]c3c(c2c1)CN(C(=O)CN(C)CC1OCCO1)CC3	-6	i	7	-5	-16	3	4	12
Cc1ccc(C(=O)NNC(=O)c2cccc(S(=O)(=O)N3CCOCC3)c2)cc1	18	x	x	-1	3	-3	-18	x
Cc1c(OCC(=O)NCC2CCC(C(=O)O)CC2)ccc2c3c(c(=O)oc12)CCC3 (stereo not given)	0	i	2	x	-6	-2	-4	7
O=C(COC(=O)CCc1c[nH]c2ccccc12)Nc1cccc(Cl)c1	x	x	x	-51	-3	5	-15	x
COc1ccc2c(C)cc(N3CCN(c4ccc(F)cc4)CC3)nc2c1	57	i	-4	x	9	4	-13	5
COc1ccc(-c2c3c(nc4sc5c(Cl)nc(C)nc5c24)CCC3)cc1	-26	i	-5	x	-3	4	x	-4
COc1cc(OC)nc(Nc2nc(C(N)Cc3ccc(F)cc3)cs2)n1 (stereo not given)	x	x	x	-10	0	1	-7	x
